Rango release inh: prevents RanGTP from dissociating the Rango-importin beta complex | O95149+P62826 | Biochemical FRET Rango-importin beta, RanGTP-induced dissociation | Potency, µM (titrated, usually from 46.1 µM), for the others: top-dose activity change, negative = inhibition | 340,000 tested, 0.071% active | AID 540253; active means falling FRET ratio curve, often poorly fitted, with flat reads before Ran was added; inconclusive means other falling curves, or compound fluorescence or quenching; inactive means flat or rising ratio curve;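 further: potency means the concentration at half of the fitted maximal effect; % of control where 0% means no effect; nearly all actives have a fitted effect of over 45% in size; -100% = wells without RanGTP and RCC1; the record marks most hits as doubtful in a second field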
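Recombinant Rango FRET biosensor (EYFP–snurportin 1 IBB–cerulean CFP10) at 0.1 uM premixed with 0.25 uM importin beta in PBS, 1 mM DTT, 0.02% Tween-20, 0.1% BSA. Compound added 5 min; RanGTP-RCC1 (0.6 uM Ran, 2 mM GTP, 0.2 uM RCC1) then triggers release, read at 45 min.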
GLA inh pH 4.5: blocks human alpha-galactosidase A at pH 4.5; P06280; purified enzyme, 4-MU-alpha-Gal fluorescence, pH 4.5; activity change, negative = inhibition, % at 105 µM; 230,000 tested, under 10 active; inconclusive = small, poorly fitted or top-dose-only inhibition, or a rising curve; inactive = flat fitted curve, though single readings scatter; no compound was filed as active;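 further: 0% = full activity with enzyme and -100% = basal without enzyme; dose as in the result columns while the protocol names 77 µM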
Target sequence (P06280 whole entry, looked up): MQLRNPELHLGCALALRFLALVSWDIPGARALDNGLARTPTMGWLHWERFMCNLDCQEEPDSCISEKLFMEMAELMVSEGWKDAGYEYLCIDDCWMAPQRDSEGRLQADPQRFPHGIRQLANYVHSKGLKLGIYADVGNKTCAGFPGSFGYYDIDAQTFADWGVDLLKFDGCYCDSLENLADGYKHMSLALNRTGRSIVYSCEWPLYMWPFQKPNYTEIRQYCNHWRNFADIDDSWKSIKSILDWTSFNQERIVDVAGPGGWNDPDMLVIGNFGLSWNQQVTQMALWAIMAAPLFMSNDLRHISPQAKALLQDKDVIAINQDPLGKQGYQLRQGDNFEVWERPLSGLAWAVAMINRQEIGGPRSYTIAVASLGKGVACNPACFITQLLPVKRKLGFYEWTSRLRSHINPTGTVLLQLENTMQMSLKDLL
miR-21 reporter: raises the signal of a miR-21 reporter; HeLa miR-21 FLuc reporter, luciferase, 48 h; Potency, µM (titrated, usually from 38.3 µM), without a hit: at the highest dose reporter change, positive = more light; 340,000 tested, under 10 active; active = well fitted rising curve with a large enough effect; inconclusive = small, poorly fitted or top-dose-only effect; inactive = no such curve, though single readings can be large or run the other way;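 further: % of control where 0% means no effect; miR-21 action dims this reporter so a rising signal means less miR-21 action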
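Luminescence from a firefly luciferase reporter carrying a miR-21 binding site downstream, stably expressed under a CMV promoter in HeLa cells that make miR-21 endogenously, reports miRNA modulation after 48 h compound exposure up to approximately 40uM final.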
Rango complex inh: inhibitors of Rango-importin beta complex formation | 340,000 tested, 0.031% active | Rango CFP/YFP FRET sensor + importin beta, 45 min | Q14974 | Potency, µM (titrated, usually from 92.2 µM), for the others: top-dose inhibition of complex formation; active = rising FRET ratio curve, often small or poorly fitted; inconclusive = mostly compound fluorescence or quenching in the first reads; inactive = flat curves in all reads;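 further: potency means the concentration at half of the fitted maximal effect; 0% = DMSO wells and 100% = buffer wells lacking importin beta; nearly all actives have a fitted effect of over 15% in size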
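FRET biosensor (snurportin 1 IBB flanked by EYFP and cerulean), 50 nM, with compound 5 min, then 0.125 microM importin beta in PBS, 1 mM DTT, 0.02% Tween-20, 0.1% BSA. CFP/YFP ratio read after 45 min at room temperature; pre-read flags interference.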
Numbers without * were called inactive; u = inconclusive; x = not tested or not shown; & = joins results of further samples. An excerpt, so the mix of outcomes need not match the whole.

SMILES	Rango release inh	GLA inh pH 4.5	miR-21 reporter	Rango complex inh
Cc1ccc(NC(=O)Cc2cn3ccsc3n2)nc1	-4%	0	-2%	-0.5%
COc1ccc(NS(=O)(=O)c2cc(NC(=O)[C@@H](NC(=O)c3ccccc3)C(C)C)ccc2C)cc1	10%	1	24%	-0.5%
CCOc1ccc(S(=O)(=O)/N=C(/Nc2ccc(C)c(S(=O)(=O)N3CCOCC3)c2)c2ccccc2)cc1	-11%	x	x	0.9%
O=C(CN1C(=O)c2ccccc2S1(=O)=O)NCCSCc1ccco1	9%	-1	-2%	-5.2%
Cc1cc(C)nc(/N=C(\N)Nc2ccc(S(=O)(=O)Nc3nccc(C)n3)cc2)n1	1%	-24	-3%	-1.0%
NNc1ncnc2sc3c(c12)CCC3	-11%	-6	-9%	-0.1%
CNC(=S)N/N=C/c1cc(Br)c(OCc2ccncc2)c(OC)c1	-13%	x	4%	-1.6%
Cc1cc(S(=O)(=O)N2CCC3(CC2)OCCO3)c(C)cc1Cl	-2%	x	-5%	1.8%
O=C(Cn1ccc([N+](=O)[O-])n1)NCc1cccs1	6%	-7	-1%	-3.0%
CCNC(=S)NNC(=O)C(c1ccccc1)c1ccccc1	-5%	1	2%	0.1%
Cc1ccc(C(=O)C(C(=O)/C=C/c2ccccc2)=C2SCCCS2)cc1	-4%	-19	u	-3.8%
CC(OC(=O)c1cccc(S(=O)(=O)N2CCCC2)c1)C(=O)c1ccccc1 (stereo not drawn)	-6%	x	-2%	0.3%
COc1cccc(CNC(=O)Cc2ccc(NC(=O)C3=C(C)OCCS3)cc2)c1	u	x	-20%	u
CC1CC(C)CN(C(=O)COc2ccc([N+](=O)[O-])cc2Cl)C1 (stereo not drawn)	0%	-1	10%	-2.7%
Cc1[nH]c(C)c(S(=O)(=O)N2CCN(c3cccc(Cl)c3)CC2)c1C(=O)N1CCCCC1	2%	x	23%	2.5%
Cc1ccc2c(c1)N(CC(=O)NCCc1c[nH]c3ccccc13)C(=O)CO2	3%	-4	-2%	-1.2%
CC(C)(C)OC(=O)N1CCC(C(=O)N[C@@H](Cc2c[nH]c3ccccc23)C(=O)O)CC1	2%	x	-1%	-5.0%
CCOC(=O)C(CO)NC(=O)C1(NC(C)=O)CCCC1 (stereo not drawn)	-19%	x	x	3.6%
CCOC(=O)N1CCN(C(=O)c2ccc3nc4cc(Cl)ccc4c(=O)n3c2)CC1	-13%	x	x	3.2%
Cc1ccc(S(=O)(=O)N2CCCCC2)cc1NC(=O)c1cccs1	7%	x	x	-0.2%
O=C(OCC(=O)N1CCN(c2ccccc2)CC1)c1ccccc1[N+](=O)[O-]	2%	x	x	0.4%
CCCCCn1c(=O)[nH]c2cc(C(=O)N3CCN(C(=O)OCC)CC3)ccc2c1=O	1%	x	2%	2.5%
Cn1nc(-c2ccccc2)c(C(=O)Nc2ccc(C(F)(F)F)cc2)c1Cl	4%	5	-2%	-9.0%
COCCCNC(=O)c1cccc(OC)c1OC	-11%	-11	-2%	0.4%
COc1ccc(-c2cn3c(C)c(C(=O)NCCN4CCOCC4)sc3n2)cc1	-10%	-4	-21%	u
O=C(C[n+]1cccc(CNC(=O)c2ccc(OC(F)F)cc2)c1)Nc1ccc(SC(F)F)cc1	-4%	1	1%	2.4%
CC(=O)NCCNC(=O)c1ccc(NC2=NC3CS(=O)(=O)CC3S2)cc1 (stereo not drawn)	14%	4	0%	4.1%
CC1=C(C(=O)Nc2ccc([N+](=O)[O-])cc2)C(c2cccc(C(F)(F)F)c2)NC(=S)N1c1ccccc1 (stereo not drawn)	2%	-1	u	-0.9%
c1cc(-c2noc(CC3CCCCC3)n2)ccn1	-8%	1	-13%	4.5%
CC(C)c1ccccc1NC(=O)c1ccc2ncsc2c1	-10%	x	-21%	0.0%
CC(C)CC(OC(=O)c1ccco1)C(=O)NCC1CCCO1 (stereo not drawn)	-4%	2	0%	0.0%
N#CCN(N=Nc1ccccc1)c1ccccc1	-12%	x	-21%	-3.0%
CC(=O)N1[C@H](Cc2ccccc2)C=C[C@]1(C)C(=O)NCc1ccccn1	13%	1&4	-5%	6.2%
CCOc1ccccc1CN(CCc1ccc2c(c1)OCO2)Cc1ccccn1	13%	2	-2%	1.4%
Cc1ccc(/C=N/NC(=O)c2ccncc2)o1	-16%	-1	-3%	-1.7%
Cc1cc(Nc2ccc(Cl)cc2)n(-c2ccccc2)n1	0%	-1	5%	4.1%
O=C(Nc1cccc(-c2cscn2)c1)C1CCN(Cc2ccsc2)CC1	-10%	x	1%	0.3%
CN1C(=O)c2ccccc2N(C)C1c1ccc2c(c1)OCO2 (stereo not drawn)	1%	24	-2%	u
Cc1cccc(OCC(=O)N/N=C/c2ccc(N(C)C)cc2)c1	-1%	4	-7%	-1.4%
CC(Oc1ccccc1)C(=O)NNS(=O)(=O)c1ccc([N+](=O)[O-])cc1 (stereo not drawn)	-11%	4	-4%	-0.7%
COc1ccc(-c2c(C)oc3ccc(C)cc23)cc1	1%	-23	1%	-1.0%
O=C(Cc1ccccc1F)Nc1ccc(S(=O)(=O)Nc2ncccn2)cc1	-3%	x	-8%	u
C[C@@]12CCC3[C@@](CCC4[C@@]3(C)CCC[C@@]4(C)C(=O)N3CCCCC3)(CC1=O)C2 (stereo partly drawn)	-5%	x	x	1.4%
O=[N+]([O-])/C=C/c1ccc2c(ccn2Cc2ccccc2)c1	9%	x	u	-2.5%
Cc1ccc(-n2c(O)c(C=NC3CCS(=O)(=O)C3)c3ccccc3c2=O)cc1 (stereo not drawn)	-15%	0	1%	u
Cc1cc(C)n(-c2c(F)c(F)c(COC(=O)c3ccccc3)c(F)c2F)n1	-4%	-14	-5%	0.0%
O=C(CCN1CCCO1)N1CCCC(N2CCN(c3ccccc3F)CC2)C1 (stereo not drawn)	-1%	x	-4%	-3.3%
COc1ccc(CC(=O)O/N=C(\N)c2ccncc2)cc1	-5%	-4	-19%	-2.1%
CC(=O)Nc1ccc(NC(=O)c2cc([N+](=O)[O-])cc([N+](=O)[O-])c2)cc1	-5%	x	1%	4.4%
Cc1ccc(/C=C2\Oc3c(ccc(O)c3CN3CCN(CCO)CC3)C2=O)cc1	u	-19	-15%	u
Nc1ncnc2c1ncn2[C@@H]1O[C@H](CNCc2ccc(OCc3ccccc3)cc2)[C@@H](O)[C@H]1O	0%	x	x	0.1%
N#CC1=C(N)NC(SCc2ccc(F)cc2)=C(C#N)C12CCCCC2	-2%	-10	30%	2.1%
COc1ccc(NC(=O)Cn2cc(C#N)c3ccccc32)cc1	29%	0	-1%	-3.8%
COc1ccc(C(=O)Nc2ccc(S(=O)(=O)Nc3nccc(C)n3)cc2)cc1OC	3%	-24	-11%	0.1%
Cc1cccc(OCC(=O)NNC(=O)CCN2CCN(c3ccccc3)CC2)c1C	1%	x	x	0.4%
COCCNC(=O)C(c1ccncc1)N(Cc1ccccc1)C(=O)Cn1nnc2ccccc21 (stereo not drawn)	-16%	2	-42%	0.4%
COc1cc(C=CC(=O)c2cc(OC)c(OC)c(OC)c2)cc(OC)c1OC	-14%	x	x	0.0%
Cc1cccc(/C(N)=N/OC(=O)c2ccncc2)c1	9%	x	-43%	-1.0%
CC(C)C(CCNCc1ccccn1)c1ccc(Cl)cc1 (stereo not drawn)	u	x	12%	1.8%
CCOc1ccccc1NC(=S)N1CCCCCC1	8%	x	0%	-0.1%

Twelve entries from above in another layout.
Fields: Rango release inh	GLA inh pH 4.5	miR-21 reporter	Rango complex inh
> Cc1cc(C)n(-c2c(F)c(F)c(COC(=O)c3ccccc3)c(F)c2F)n1
→ -4%	-14	-5%	0.0%
> O=C(CCN1CCCO1)N1CCCC(N2CCN(c3ccccc3F)CC2)C1 (stereo not drawn)
→ -1%	x	-4%	-3.3%
> COc1ccc(CC(=O)O/N=C(\N)c2ccncc2)cc1
→ -5%	-4	-19%	-2.1%
> CC(=O)Nc1ccc(NC(=O)c2cc([N+](=O)[O-])cc([N+](=O)[O-])c2)cc1
→ -5%	x	1%	4.4%
> Cc1ccc(/C=C2\Oc3c(ccc(O)c3CN3CCN(CCO)CC3)C2=O)cc1
→ u	-19	-15%	u
> Nc1ncnc2c1ncn2[C@@H]1O[C@H](CNCc2ccc(OCc3ccccc3)cc2)[C@@H](O)[C@H]1O
→ 0%	x	x	0.1%
> N#CC1=C(N)NC(SCc2ccc(F)cc2)=C(C#N)C12CCCCC2
→ -2%	-10	30%	2.1%
> COc1ccc(NC(=O)Cn2cc(C#N)c3ccccc32)cc1
→ 29%	0	-1%	-3.8%
> COc1ccc(C(=O)Nc2ccc(S(=O)(=O)Nc3nccc(C)n3)cc2)cc1OC
→ 3%	-24	-11%	0.1%
> Cc1cccc(OCC(=O)NNC(=O)CCN2CCN(c3ccccc3)CC2)c1C
→ 1%	x	x	0.4%
> COCCNC(=O)C(c1ccncc1)N(Cc1ccccc1)C(=O)Cn1nnc2ccccc21 (stereo not drawn)
→ -16%	2	-42%	0.4%
> COc1cc(C=CC(=O)c2cc(OC)c(OC)c(OC)c2)cc(OC)c1OC
→ -14%	x	x	0.0%

Next part.
SMILES	Rango release inh	GLA inh pH 4.5	miR-21 reporter	Rango complex inh
O=C(CCc1ccccc1)NNC(=S)NCCc1ccccc1	-8%	x	-1%	-0.2%
CCCS(=O)(=O)N1CCC(C(=O)N2CCC(Cc3ccccc3)CC2)CC1	-1%	9	3%	-1.7%
COc1ccc(/C=C2\SC(=S)N(CCCCCC(=O)Nc3cc(C)on3)C2=O)cc1OC	1%	x	6%	1.5%
CCc1ccc(NC(=O)Nc2ccon2)cc1	21%	x	-51%	4.2%
CCCNc1nc2c(c(=O)n(C)c(=O)n2C)n1CCCc1ccccc1	17%	x	2%	-7.9%
CC1CC(C)CN(C(=O)COC(=O)C2CCN(S(=O)(=O)c3ccc4c(c3)OCCO4)CC2)C1 (stereo not drawn)	-2%	x	x	-2.4%
COc1ccccc1NC(=O)C1=C(C)NC2=C(C(=O)CCC2)C1c1ccc(C)o1 (stereo not drawn)	u	-1	-8%	-1.1%
Cc1ccc(C(=O)Nn2cnc3scc(-c4cccs4)c3c2=O)c(O)c1	18%	-3	-1%	-6.7%
Cn1ncc(Br)c1C(=O)NC12CC3CC(CC(C3)C1)C2	-3%	-6	-12%	-0.7%
COc1ccc(OC)c(NC(=O)c2cc(-c3ccc(C)cc3O)n[nH]2)c1	24%	-3	-27%	-1.2%
Cc1cc([N+](=O)[O-])ccc1NC(=O)Cc1ccc(F)cc1	13%	-4	-2%	-3.1%
O=C(Oc1ccc2c(c1)OCO2)c1cc2c(s1)CCC2	-20%	11	-2%	u

Continued; the last two above are carried over.
SMILES	Rango release inh	GLA inh pH 4.5	miR-21 reporter	Rango complex inh
Cc1cc([N+](=O)[O-])ccc1NC(=O)Cc1ccc(F)cc1	13%	-4	-2%	-3.1%
O=C(Oc1ccc2c(c1)OCO2)c1cc2c(s1)CCC2	-20%	11	-2%	u
Cc1oc(=O)cc(OCc2ccccc2)c1C	5%	x	x	-0.3%
CC(C)NCC(=O)C12CC3CC(CC(C3)C1)C2	-7%	9	-2%	0.7%
COc1ccc(OC)c(S(=O)(=O)N2CCCC2C(=O)NC(C)c2ccccc2)c1 (stereo not drawn)	u	x	7%	2.1%
Cc1ccc(NC(=O)Nc2cccc([N+](=O)[O-])c2)cc1F	-8%	-5	15%	2.0%
Cc1ccc(C(=O)OCC(=O)N2CCCCCC2)cc1S(=O)(=O)N1CCOCC1	1%	x	x	-7.2%
CN(C(=O)CCS(=O)(=O)c1ccc2c(c1)oc(=O)n2C)C1CCCCC1	12%	x	1%	1.4%
O=C(CN1CCN(C(=O)c2ccccc2)CC1)NC(=O)NCCC1=CCCCC1	10%	x	x	1.2%
CCNC(=S)N(CCc1c(C)[nH]c2ccc(C)cc12)Cc1ccco1	0%	-10	4%	-0.5%
CC(C)COC(=O)c1ccc(N2C(=O)c3ccccc3C2=O)cc1	6%	2	-8%	-1.7%
Cc1ccc(-n2c(N)c(C(N)=O)sc2=S)c(C)c1	-2%	7	-27%	-2.8%
O=C(CN1C(=O)NC2(CCCC2)C1=O)NCc1ccc(Cl)cc1	9%	x	x	-2.5%
O=S(=O)(c1ccc(Br)s1)N1CCN(c2ccnc3cc(Cl)ccc23)CC1	-5%	-5	5%	-1.3%
CCC[N+](CC#Cc1ccccc1)(CCC)CC(=O)c1ccc(Cl)cc1	-5%	-4	11%	u
